Cruzain inh Det: qHTS Assay for Promiscuous and Specific Inhibitors of Cruzain (with detergent) | Cruzipain (Trypanosoma cruzi), P25779 | purified cruzain, Z-FR-AMC fluorescence, 0.01% Triton | Potency, µM, inactives show max response, negative = inhibition, hits mostly inhibitors | 200,000 compounds, 0.43% hits; active = well fitted curve in the direction sought with a large enough effect; inconclusive = small, poorly fitted or top-dose-only effect, or another doubt; inactive = no such curve, though single readings can be large; an effect the other way counts as inactive or inconclusive;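 also: plate controls were neutral wells for no effect and buffer without enzyme for full effect; nearly all actives have a fitted effect of over 40% in size; top concentration of the series not given in the record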
Target sequence (P25779 123-467 limits assumed): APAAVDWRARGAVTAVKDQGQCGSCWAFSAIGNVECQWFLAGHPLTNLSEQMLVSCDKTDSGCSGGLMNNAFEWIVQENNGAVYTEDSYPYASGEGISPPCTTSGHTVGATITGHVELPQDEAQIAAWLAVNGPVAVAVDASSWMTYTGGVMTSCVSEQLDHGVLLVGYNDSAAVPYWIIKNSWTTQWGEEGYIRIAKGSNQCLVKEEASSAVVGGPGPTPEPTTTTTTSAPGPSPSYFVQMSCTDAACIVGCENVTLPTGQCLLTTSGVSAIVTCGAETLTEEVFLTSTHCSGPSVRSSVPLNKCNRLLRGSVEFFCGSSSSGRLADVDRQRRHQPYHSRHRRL
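Purified cruzain (1.5 nM final) was preincubated with compounds for 15 min at room temperature in 100 mM sodium acetate pH 5.5, 5 mM DTT, 0.01% Triton X-100. Reaction started with 2 uM Z-FR-AMC; AMC fluorescence change over 60 s gave activity.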
SARS PLpro yeast: qHTS of Yeast-based Assay for SARS-CoV PLP; S. cerevisiae expressing SARS-CoV PLpro, growth rescue; control for the full effect not named in the record; Potency, µM (doses to about 32.9 µM), inactives show at the highest dose activity, positive = growth rescue; 330,000 compounds, 0.19% hits; AID 485353, 2010; also: 0% is about no effect; nearly all actives have a fitted effect of over 55% in size; growth read by luminescence after 48 h
Cruzain noTriton: qHTS Assay for Promiscuous and Specific Inhibitors of Cruzain (without detergent); Cruzipain (Trypanosoma cruzi), P25779; purified cruzain, Z-FR-AMC fluorescence, no detergent; Potency, µM, inactives show max response, negative = inhibition, actives largely listed as inhibitors; 200,000 compounds, 2.3% hits; AID 1476, 2009; active = well fitted curve in the direction sought with a large enough effect; inconclusive = small, poorly fitted or top-dose-only effect, or another doubt; inactive = no such curve, though single readings can be large; an effect the other way counts as inactive or inconclusive;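 also: plate controls were enzyme without inhibitor for no effect and buffer without enzyme for full effect; nearly all actives have a fitted effect of over 40% in size; top concentration of the series not given in the record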
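Purified cruzain at 1.5 nM, pre-incubated 15 min with compound at room temperature in 100 mM sodium acetate pH 5.5, 5 mM DTT, 0.00005% Triton X-100. Reaction started with 2 uM Z-FR-AMC; AMC fluorescence increase over 60 s gives rate.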
RE007 growth inh: qHTS Assay for Inhibitors of the HIV-1 protein Vpr; Potency, µM (highest dose often 92.2 µM), without a hit: at the highest dose activity change, negative = less growth; 360,000 compounds, 0.21% hits; S. pombe RE007 Vpr strain, BacTiter-Glo ATP luminescence, 24 h; control for the full effect not named in the record; active = well fitted falling curve with a large enough effect; inconclusive = small, poorly fitted or top-dose-only effect; inactive = no such curve, though single readings can be large or run the other way;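 also: % is scaled to controls: 0 for no effect and ±100 for the full control effect; nearly all actives have a fitted effect of over 50% in size; the assay follows cell death caused by Vpr and the record does not say whether a fall means rescue or toxicity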
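Fission yeast RE007 carrying one integrated HIV-1 vpr copy, seeded at OD 0.01 in PMG+AL medium with 23 nL pinned compound. Grown 24 h at 30 degrees; viability read by BacTiter-Glo luminescence after 5 min.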
2A StopGo: High Throughput Screening for Foot and Mouth Disease Virus Antivirals | Potency, µM (doses to about 57.9 µM), without a hit: at the top dose signal change, negative = less light | 410,000 compounds, 1.2% hits | human cells with a luciferase reporter of 2A StopGo recoding; control for the full effect not named in the record; active = well fitted falling curve with a large enough effect; inconclusive = small, poorly fitted or top-dose-only effect; inactive = no such curve, though single readings can be large or run the other way; tested in HEK293T cells; also: % is scaled to controls: 0 for no effect and ±100 for the full control effect; nearly all actives have a fitted effect of over 45% in size; luciferase light after 4 h
MARV entry inh: qHTS for inhibitors of binding or entry into cells for Marburg Virus; Marburg virus pseudotyped entry inhibition, cell reporter; control for the full effect not named in the record; about a third of the inactives were read at about 46 µM; Potency, µM (titrated, usually from 37.8 µM), inactives show top-dose activity change, negative = inhibition, usual class: inhibitors; 300,000 compounds, 1.8% hits; active = well fitted inhibition curve with a large enough effect; inconclusive = small, poorly fitted or top-dose-only effect, or effect the other way; inactive = flat fitted curve, though single readings scatter; tested in HEK293 cells; about a fifth of its hits are not listed in these tables; also: % is scaled to controls: 0 for no effect and ±100 for the full control effect; luciferase read-out
LASV entry inh: qHTS for Inhibitors of binding or entry into cells for Lassa Virus | Lassa virus pseudotype entry inhibition, cell reporter; control for the full effect not named in the record | Potency, µM (highest dose often 37.9 µM), without a hit: at the highest dose activity change, negative = inhibition, usual class: inhibitors | 300,000 compounds, 1.2% hits; active means well fitted inhibition curve with a large enough effect; inconclusive means small, poorly fitted or top-dose-only effect, or effect the other way; inactive means flat fitted curve, though single readings scatter; tested in HEK293 cells; also: % is scaled to controls: 0 for no effect and ±100 for the full control effect; nearly all actives have a fitted effect of over 50% in size; luciferase read-out
NS1 inh: qHTS Assay for Inhibitors of Influenza NS1 Protein Function; S. cerevisiae slowed by influenza A NS1, growth recovery by OD600; Potency, µM (top dose mostly 46.1 µM), for the others: at the highest dose activity, positive = more growth; 270,000 compounds, 0.4% hits; AID 2326, 2010; also: actives are rising curves; nearly all actives have a fitted effect of over 50% in size
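Growth recovery, yeast-based: influenza A NS1 expressed in S. cerevisiae causes slow growth, and suppressors are detected by OD600. The parent strain without NS1 is used as positive control.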
* hit, by the source's call; ? = inconclusive; . = not tested or not shown; [ ] = dose if it differs, or a comment. Unless noted, calls follow the shape of the dose curve; as a rule, active means well fitted rising curve with a large enough effect; inconclusive means small, poorly fitted or top-dose-only effect; inactive means no such curve, though single readings can be large or run the other way. Potency is read from the fitted curve at half-maximal effect.

SMILES	Cruzain inh Det	SARS PLpro yeast	Cruzain noTriton	RE007 growth inh	2A StopGo	MARV entry inh	LASV entry inh	NS1 inh
Cc1ccc(NC(=O)c2cc(-c3ccccc3O)n[nH]2)cc1Cl	.	-1%	.	2%	26%	9%[46.1 µM]	16%[46.1 µM]	2%
O=C(NCc1ccco1)c1nn2c(C(F)(F)F)cc(-c3cccs3)nc2c1Cl	-4.7%	-2%	6%	5%	.	-31%	9%	9%
CCCC12CN3CC(C)(CN(C1)C3c1cn(C)c3ccccc13)C2=O (stereo not given)	-0.1%	.	?	.	-9%	-19%[46.1 µM]	-10%[46.1 µM]	.
C/C=C(\C)C(=O)NCCN1C2=NC[C@H](Cc3ccc(O)cc3)N2C[C@@H]1Cc1ccc(OC)cc1	.	0%	.	-8%	-10%	.	.	5%
FC(F)(F)c1ccccc1C1C2=C(Nc3ncnn31)c1ccccc1CCC2 (stereo not given)	-4.7%	-3%	14%	.	.	-3%	.	8%
CN(C)c1oc(/C=C/c2ccccc2)nc1C#N	?	0%	?	-28%	8%	?	-23%	-1%
COc1ccc(NC(=O)CSc2nc3ccccc3c(=O)n2C)cc1	.	-6%	.	6%	0%	?	-14%	2%
CCC(CC)C(=O)Nc1ccc(C)c(O)c1	6.4%	-21%	-5%	19%	2%	-19%	-9%	4%
O=C(/C=C/c1ccc(F)cc1)NC(=S)Nc1ccccc1C(=O)NC1CCCCC1	-0.1%	3%	?	-2%	-14%	?	?	4%
COc1ccccc1NC(=O)NCCN1CCNC1=O	.	0%	.	-2%	10%	-4%[46.1 µM]	-1%	-3%
O=c1[nH]c2ccc(NC(=S)Nc3ccc(Cl)cc3)cc2[nH]1	-7.2%	4%	-7%	-4%	-2%	-8%	-4%	-6%
O=C(CCC1CCCN(Cc2cccc(Cl)c2)C1)NCc1ccccc1F (stereo not given)	.	0%	.	-12%	1%	.	.	-3%
O=C(CC(=O)c1ccccc1)Nc1ccc(Cl)cc1	.	-6%	.	-21%	31%[activator]	?	-29%[46.1 µM]	-3%
CNC[C@H](NC[C@@H](NCCCc1ccccc1)c1ccccc1)[C@H](C)O	.	-2%	.	4%	-20%	.	.	-13%
COC(=O)c1cccc(NC(=O)N(C)CCc2c(C)nn(C)c2C)c1	-0.4%	.	-5%	.	20%	.	-11%[46.1 µM]	.
COc1ccc(N(C(=O)COc2ccccc2OC)S(=O)(=O)c2ccc(C)cc2)cc1	-0.5%	-1%	0%	-8%	-29%	?	?	-1%
CC1=C(C(=O)Nc2cc(-c3cccc(F)c3)[nH]n2)C2(CCCCC2)OC1=O	-14%	-2%	0%	5%	-20%	.	.	-11%
COc1ccccc1CN1CCN(C(=O)COc2ccc3ccccc3c2)CC1	.	-5%	.	-23%	-12%	.	.	-15%
COCCn1c(-c2ccc(F)cc2)nc2cccnc21	.	6%	.	17%	-17%	.	.	4%
O=C(CN1C(=O)NC2(CCc3ccccc3C2)C1=O)NCC(F)(F)F (stereo not given)	.	0%	.	1%	-14%	.	.	0%

Six of the compounds above, as comma-separated lines.
SMILES,Cruzain inh Det,SARS PLpro yeast,Cruzain noTriton,RE007 growth inh,2A StopGo,MARV entry inh,LASV entry inh,NS1 inh
COC(=O)c1cccc(NC(=O)N(C)CCc2c(C)nn(C)c2C)c1,-0.4%,.,-5%,.,20%,.,-11%[46.1 µM],.
COc1ccc(N(C(=O)COc2ccccc2OC)S(=O)(=O)c2ccc(C)cc2)cc1,-0.5%,-1%,0%,-8%,-29%,?,?,-1%
CC1=C(C(=O)Nc2cc(-c3cccc(F)c3)[nH]n2)C2(CCCCC2)OC1=O,-14%,-2%,0%,5%,-20%,.,.,-11%
COc1ccccc1CN1CCN(C(=O)COc2ccc3ccccc3c2)CC1,.,-5%,.,-23%,-12%,.,.,-15%
COCCn1c(-c2ccc(F)cc2)nc2cccnc21,.,6%,.,17%,-17%,.,.,4%
O=C(CN1C(=O)NC2(CCc3ccccc3C2)C1=O)NCC(F)(F)F (stereo not given),.,0%,.,1%,-14%,.,.,0%

The listing continues:
SMILES	Cruzain inh Det	SARS PLpro yeast	Cruzain noTriton	RE007 growth inh	2A StopGo	MARV entry inh	LASV entry inh	NS1 inh
O=C(O)CNC(=O)c1ccccc1Br	.	0%	.	1%	4%	-16%[46.1 µM]	0%	.
CCCNC(=O)N1CCCC(C(N)=O)C1 (stereo not given)	.	4%	.	10%	-12%	?	28%	.
Cc1ccc(-n2ncc3c2CC(C)(C)CC3NC(=O)CCc2ccc(=O)[nH]n2)cc1 (stereo not given)	.	4%	.	-11%	2%	-26%[46.1 µM]	8%[46.1 µM]	-1%
COc1ccc(-c2nc(SCC(=O)NC3CCCC3)c(-c3ccccc3)[nH]2)cc1OC	-7.5%	.	28%	.	-4%	0%[46.1 µM]	-24%[46.1 µM]	.
O=C(Cn1c(NCCCO)nc2ccccc21)c1ccco1	6.4%	-2%	-1%	-3%	.	24%	3%	-4%
COc1cccc(CNC(=O)CSc2nnc3c(n2)[nH]c2ccc(OC)cc23)c1	.	-3%	.	0%	-15%	?	.	-6%
COC(=O)C1=C(C)NC(=O)C1(NC(=O)CN1CCCC1=O)C(F)(F)F (stereo not given)	0.0%	-2%	2%	-5%	1%	5%	3%	-4%
O=C(NCCc1c[nH]c2ccccc12)c1ccccc1	.	-2%	.	-8%	40%[activator]	7%	?	-7%
COc1cccc(N2C(N)=NC(N)=NC2(C)C)c1	3.3%	1%	-5%	21%	-17%	-26%	?	2%
COc1ccc(CNC(=O)CN(c2cccc([N+](=O)[O-])c2)S(C)(=O)=O)cc1	.	0%	.	-10%	-15%	28%[46.1 µM]	5%[46.1 µM]	0%
Cc1cc(-c2nnc(SCC(=O)Nc3ccc(Cl)cn3)n2N)n[nH]1	.	2%	.	-1%	-9%	?	13%[46.1 µM]	8%
Cc1ccc(OC(=O)c2ccncc2)c(C)c1	.	-7%	.	5%	4%	.	.	-33%
O=C(N/N=C/c1ccncc1)c1ccccn1	.	-1%	.	-14%	34%[activator]	.	.	8%
O=C(Nn1c(-c2ccccc2)nc2ccccc2c1=O)c1ccc([N+](=O)[O-])cc1	-5.5%	-3%	8%	-6%	0%	?	8%	11%
CCc1n[nH]c(=S)n1/N=C/c1cc(OC)cc([N+](=O)[O-])c1O	.	-4%	.	-29%	-22%	-6%[46.1 µM]	1%	.
CC(Sc1nc(-c2ccccc2)cc(C(F)(F)F)n1)C(=O)Nc1ccc2c(c1)OCO2 (stereo not given)	-2.9%	10%	7%	49%	?	15%	0%	6%
Cc1ccccc1NC(=S)NCc1ccc2[nH]c3c(c2c1)CCCC3	-5.3%	-28%	?	10%	-13%	?	?	?
Cc1cc2oc(C(=O)Nc3cccnc3)c(C)c2cc1C	-1.9%	4%	?	-15%	30%[activator]	.	.	-3%
NC(=O)c1ccc(NC(=O)COC(=O)CCC2CCCCC2)cc1	.	-1%	.	-8%	-2%	?	10%	.
CC(=O)N(CCCN(C)C)CCC(C)CCC=C(C)C (stereo not given)	5.8%	-2%	4%	-3%	.	?	2%	-4%
CC(C)N1C(=O)/C(=C\c2nc3ccccc3c(=O)[nH]2)c2ccccc21	-12%	-79%	15%	6%	40µM*	?	?	8%
O=C(NC12CC3CC(CC(C3)C1)C2)c1ccc([N+](=O)[O-])o1	.	-14%	.	-20%	?	.	.	-84%
O=C(CNC(=O)c1ccccc1Cl)Nc1ccc(Br)cc1C(=O)c1ccccc1	-5.1%	16%	-12%	-17%	-20%	-19%	-12%	-5%
CCOC(=O)N1CCN(C(=O)CCCn2nc(C)c3sc4ccccc4c3c2=O)CC1	-2.2%	13%	?	24%	?	3%	-17%	-63%
COc1ccc(-n2c(C)cc(C)c(C(C)=O)c2=S)cc1	-5.4%	17%	-1%	-12%	-19%	9%	25%	-3%
CC(=O)N1CCN(C(=O)COc2ccccc2C(=O)Nc2ccccc2)CC1	.	0%	.	-24%	-8%	13%[46.1 µM]	-1%[46.1 µM]	.
Cc1cccc(C)c1N1C(=O)CC(N2CCSCC2)C1=O (stereo not given)	.	-5%	.	?	-19%	-3%	?	-2%
COc1ccccc1N1CCN(C(=O)c2ccc(CSc3ccccc3)cc2)CC1	-5.0%	9%	?	-12%	?	?	?	-3%
CCCNC(=O)N(C)c1nncnc1C(=O)NC	1.8%	6%	-5%	0%	18%	?	-9%	-9%
COc1ccc(C(=O)NNC(=O)Nc2ccc(Cl)cc2)cc1	.	1%	.	-13%	18%	-19%[46.1 µM]	-13%	.
Cc1cc(C)cc(NC(=O)CSc2nc3c(oc4ccccc43)c(=O)n2-c2ccccc2F)c1	-1.3%	.	20µM*	.	-5%	?	.	.
CCC(=O)NCCc1nc2cc(NC(=O)c3ccccc3Cl)ccc2n1C	.	-5%	.	-13%	20%	?	-26%[46.1 µM]	2%
CCOc1ccc(S(=O)(=O)NCCc2csc3nc(-c4ccc(F)cc4)nn23)cc1	-5.4%	.	6%	.	-10%	.	?	.
CCc1ccc(NC(=O)Cn2c(-c3cncs3)nc3ccccc32)cc1	-5.2%	.	4%	.	14%	-21%[46.1 µM]	-2%[46.1 µM]	.
COC(=O)C(C)(C)NC(=O)c1cccs1	0.3%	-1%	-3%	15%	-13%	11%	-8%	4%
Cc1noc(C)c1CN1C(=O)c2ccc([N+](=O)[O-])cc2C1=O	.	1%	.	-9%	3%	-2%[46.1 µM]	12%[46.1 µM]	1%
COc1ccc(N2CC(C(=O)NCc3ccccc3)CC2=O)cc1 (stereo not given)	0.6%	-6%	8%	-12%	8%	6%	1%	5%

Bioassay records deposited in PubChem BioAssay by National Center for Advancing Translational Sciences (NCATS).
